Screening data (PubChem)
LASV entry inh: qHTS for Inhibitors of binding or entry into cells for Lassa Virus | Lassa virus pseudotype entry inhibition, cell reporter; control for the full effect not named in the record | Potency, µM (highest dose often 37.9 µM), without a hit: at the highest dose activity change, negative = inhibition, actives largely listed as inhibitors | hit rate 1.2% among 300,000; active means well fitted inhibition curve with a large enough effect; inconclusive means small, poorly fitted or top-dose-only effect, or effect the other way; inactive means flat fitted curve, though single readings scatter; tested in HEK293 cells; further: on the % scale 0 is the no-effect control and ±100 the full control effect; nearly all actives have a fitted effect of over 50% in size; luciferase read-out
Cruzain noTriton: qHTS Assay for Promiscuous and Specific Inhibitors of Cruzain (without detergent). hit rate 2.3% among 200,000. purified cruzain, Z-FR-AMC fluorescence, no detergent. Potency, µM, without a hit: max response, negative = inhibition, most hits filed as inhibitors. Cruzipain (Trypanosoma cruzi), P25779; active means well fitted curve in the direction sought with a large enough effect; inconclusive means small, poorly fitted or top-dose-only effect, or another doubt; inactive means no such curve, though single readings can be large; an effect the other way counts as inactive or inconclusive;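 further: plate controls were enzyme without inhibitor for no effect and buffer without enzyme for full effect; nearly all actives have a fitted effect of over 40% in size; top concentration of the series not given in the record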
Target sequence (P25779 123-467 limits assumed): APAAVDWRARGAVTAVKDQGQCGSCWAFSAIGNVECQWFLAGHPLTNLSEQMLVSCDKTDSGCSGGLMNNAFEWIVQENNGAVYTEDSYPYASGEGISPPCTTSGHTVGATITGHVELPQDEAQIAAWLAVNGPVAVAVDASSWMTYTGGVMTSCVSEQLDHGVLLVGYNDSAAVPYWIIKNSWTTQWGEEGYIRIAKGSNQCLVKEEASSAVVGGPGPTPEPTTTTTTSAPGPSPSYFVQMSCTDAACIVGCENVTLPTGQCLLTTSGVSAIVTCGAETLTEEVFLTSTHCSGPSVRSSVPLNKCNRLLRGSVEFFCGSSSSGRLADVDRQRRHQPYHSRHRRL
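Purified cruzain at 1.5 nM, pre-incubated 15 min with compound at room temperature in 100 mM sodium acetate pH 5.5, 5 mM DTT, 0.00005% Triton X-100. Reaction started with 2 uM Z-FR-AMC; AMC fluorescence increase over 60 s gives rate.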
MARV entry inh: qHTS for inhibitors of binding or entry into cells for Marburg Virus; Marburg virus pseudotyped entry inhibition, cell reporter; control for the full effect not named in the record; about a third of the inactives were read at about 46 µM; Potency, µM (highest dose often 37.8 µM), inactives show at the highest dose activity change, negative = inhibition, hits mostly inhibitors; hit rate 1.8% among 300,000; AID 540276, 2011; active = well fitted inhibition curve with a large enough effect; inconclusive = small, poorly fitted or top-dose-only effect, or effect the other way; inactive = flat fitted curve, though single readings scatter; tested in HEK293 cells; about a fifth of its hits are not listed in these tables; further: on the % scale 0 is the no-effect control and ±100 the full control effect; luciferase read-out
NS1 function inh: qHTS Assay for Inhibitors of Influenza NS1 Protein Function; hit rate 0.4% among 270,000; AID 2326, 2010; Potency, µM (series often up to 46.1 µM), for inactives: at the highest dose activity, positive = more growth; S. cerevisiae slowed by influenza A NS1, growth recovery by OD600; further: actives are rising curves; nearly all actives have a fitted effect of over 50% in size
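S. cerevisiae expressing influenza A NS1, grown in glucose, washed, then diluted 1:100 into pH 6.0 -URA galactose medium with 23 nl compound. Growth recovery read as OD600; NS1-free strain serves as control.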
RE007 growth inh: qHTS Assay for Inhibitors of the HIV-1 protein Vpr; S. pombe RE007 Vpr strain, BacTiter-Glo ATP luminescence, 24 h; control for the full effect not named in the record; Potency, µM (top dose mostly 92.2 µM), inactives show at the highest dose activity change, negative = less growth; hit rate 0.21% among 360,000; AID 651644, 2012; active = well fitted falling curve with a large enough effect; inconclusive = small, poorly fitted or top-dose-only effect; inactive = no such curve, though single readings can be large or run the other way;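 further: on the % scale 0 is the no-effect control and ±100 the full control effect; nearly all actives have a fitted effect of over 50% in size; the assay follows cell death caused by Vpr and the record does not say whether a fall means rescue or toxicity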
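Fission yeast strain RE007, carrying one chromosomally integrated HIV-1 vpr copy, was seeded at OD 0.01 in PMG+AL medium with 23 nL pinned compound. After 24 h at 30 °C and 99% humidity, viability was read by BacTiter-Glo luminescence.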
StopGo reporter: High Throughput Screening for Foot and Mouth Disease Virus Antivirals; human cells with a luciferase reporter of 2A StopGo recoding; control for the full effect not named in the record; hit rate 1.2% among 410,000; Potency, µM (highest dose often 57.9 µM), inactives show at the highest dose signal change, negative = less light; AID 1159524, 2015; active = well fitted falling curve with a large enough effect; inconclusive = small, poorly fitted or top-dose-only effect; inactive = no such curve, though single readings can be large or run the other way; tested in HEK293T cells; further: on the % scale 0 is the no-effect control and ±100 the full control effect; nearly all actives have a fitted effect of over 45% in size; luciferase light after 4 h
Cruzain Triton: qHTS Assay for Promiscuous and Specific Inhibitors of Cruzain (with detergent); Cruzipain (Trypanosoma cruzi), P25779; purified cruzain, Z-FR-AMC fluorescence, 0.01% Triton; Potency, µM, inactives show max response, negative = inhibition, usual class: inhibitors; hit rate 0.43% among 200,000; AID 1478, 2009; active means well fitted curve in the direction sought with a large enough effect; inconclusive means small, poorly fitted or top-dose-only effect, or another doubt; inactive means no such curve, though single readings can be large; an effect the other way counts as inactive or inconclusive;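 further: plate controls were neutral wells for no effect and buffer without enzyme for full effect; nearly all actives have a fitted effect of over 40% in size; top concentration of the series not given in the record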
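Compounds were screened in titration against cruzain (1.5 nM) with 0.01% Triton X-100 to counter colloidal aggregation. Activity was the AMC fluorescence increase over 60 s after adding 2 uM Z-FR-AMC at pH 5.5.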
SARS PLpro yeast: qHTS of Yeast-based Assay for SARS-CoV PLP. S. cerevisiae expressing SARS-CoV PLpro, growth rescue; control for the full effect not named in the record. Potency, µM (top dose mostly 32.9 µM), inactives show at the top dose activity, positive = growth rescue. hit rate 0.19% among 330,000. AID 485353, 2010; further: 0% is about no effect; nearly all actives have a fitted effect of over 55% in size; growth read by luminescence after 48 h
* hit, by the source's call; ? = inconclusive; nt = not tested or not shown; & = joins results of further samples; [ ] = dose if it differs, or a comment. Unless noted, the call rests on the fitted dose curve; in most records, active means well fitted rising curve with a large enough effect; inconclusive means small, poorly fitted or top-dose-only effect; inactive means no such curve, though single readings can be large or run the other way. Potency means the concentration at half of the fitted maximal effect.

SMILES	LASV entry inh	Cruzain noTriton	MARV entry inh	NS1 function inh	RE007 growth inh	StopGo reporter	Cruzain Triton	SARS PLpro yeast
Cc1c(-n2c(SCC(=O)O)nnc2-c2ccccc2Br)c(=O)n(-c2ccccc2)n1C	nt	nt	nt	-2%	14%	21%	nt	5%
CCc1ccc(-n2nc3ccc(NC(=O)COc4ccc(OC)cc4)cc3n2)cc1	?	12%	?	nt	nt	31%[activator]	-0.8%	nt
N#C/C(=C/c1ccccc1OCc1ccc(F)cc1)c1ccc(C(=O)O)cc1	nt	nt	nt	24%	0%	-14%	nt	3%
O=C1COc2ccc(C(=O)COC(=O)Cc3ccccc3)cc2N1	?	nt	5%[46.1 µM]	nt	-6%	10%	nt	-1%
COc1cc(CNCc2ccccn2)ccc1OCC(=O)NC1CCCCC1	-9%	-9%	-5%	-1%	-9%	-13%	1.2%	5%
Cc1ccc(Cc2cn3cc(-c4ccc(F)cc4)nc3s2)cc1	12%[46.1 µM]	-4%	?	nt	nt	29%	4.8%	nt
Cc1nn(CC(=O)NCCCc2ccccc2)c(C)c1[N+](=O)[O-]	-5%	nt	-1%[46.1 µM]	nt	-13%	-4%	nt	4%
CCCCn1c(SCc2ccc(Cl)cc2)nc2c1c(=O)[nH]c(=O)n2C	?	-5%	?	-14%	2%	35µM*	-7.4%	-3%
COc1ccc(N2CCN(C(c3cc(OC)ccc3OC)c3nnnn3CC3CCCO3)CC2)cc1 (configuration not stated)	?	?	17%[46.1 µM]	-12%	-4%	59%[activator]	-2.0%	-12%
Cn1cnc2c(=O)sc3ccccc3c21	12%[46.1 µM]	nt	?	nt	1%	9%	nt	nt
Cc1nc(SCc2ccccc2Cl)c(C#N)c(C)c1C	?	3%	5%[46.1 µM]	nt	nt	0%	3.4%	nt
COCCN(CC(=O)NC1CCCCC1)C(=O)/C=C/C(=O)c1ccc(OC)cc1O	13µM*	nt	11µM*	-1%	-8%	3.2µM*	nt	0%
CC1(NC(=S)N(CCO)CCO)CCS(=O)(=O)C1 (configuration not stated)	21%	-3%	-2%	8%	-21%	-10%	8.7%	?
COc1cccc(NC(=O)N2CCCC2C(=O)NC2CCCC2)c1 (configuration not stated)	18%[46.1 µM]	nt	27%[46.1 µM]	0%	10%	-2%	nt	-1%
COc1ccc(C=NCC2OCCc3ccccc32)cc1OC (configuration not stated)	-1%	9%	9%	18%	2%	-15%	-5.7%	13%
CC(=O)N1C(=O)N(C(C)=O)C2C1N(C)C(=O)N2C(C)=O (configuration not stated)	1%[46.1 µM]	nt	3%[46.1 µM]	2%	17%	9%	nt	0%
CN=C1S/C(=C\c2ccc(O)c(OC)c2)C(=O)N1C	?	nt	-30%	nt	-25%	22%	nt	nt
Cc1ccc(Cl)cc1N(CC(=O)NCc1ccc2c(c1)OCO2)S(C)(=O)=O	5%	nt	2%[46.1 µM]	0%	2%	26%	nt	0%
CCOc1ccc2[nH]c3c(NCCc4ccc(OC)c(OC)c4)ncnc3c2c1	?	nt	?	-3%	-3%	-20%	nt	1%
COc1ccccc1NC(=O)c1sc2nc3c(cc2c1N)CCCCCC3	13%[46.1 µM]	2%	1%[46.1 µM]	nt	nt	-12%	-4.9%	nt
CCc1nn(CC(=O)N2CCN(c3cc(C)ccc3C)CC2)c(=O)c2cc3occc3n12	1%[46.1 µM]	7%	2%&2%[46.1 µM]	9%	5%	-11%&-21%	-2.8%	-2%
CCOC(=O)c1[nH]c2ccccc2c1NC(=O)c1ccccc1OC	?	4%	-9%[46.1 µM]	nt	nt	-25%	-8.3%	nt
O=C(/C=C/c1ccc(F)cc1)NCC1(c2ccccc2)CCOCC1	1%	9%	-13%[46.1 µM]	-19%	2%	3%	-0.1%	-1%
COc1cccc(Oc2cnc(N)nc2-c2ccc(OC)cc2O)c1	?	-11%	?	-95%	15%	?	-8.9%	-5%
COc1ccc(NC(=O)CNC(=O)N2CC(=O)Nc3ccccc32)cc1OC	nt	nt	nt	1%	-1%	-6%	nt	1%
O=C(CCN1CCN(c2ccccc2)CC1)NNC(=S)Nc1ccccc1Cl	-16%	nt	18%[46.1 µM]	nt	-5%	-13%	nt	12%
CC#CP(=O)(OC)C(O)(CF)c1ccccc1 (configuration not stated)	0%	-3%	?	-1%	0%	-5%	0.0%	2%
COc1ccc(Cc2nnc(NC(=O)Nc3ccccc3F)s2)cc1	nt	nt	nt	-2%	-8%	2%	nt	11%
CC(C)CCOc1ccc(C(CC(N)=O)C(=O)O)cc1 (configuration not stated)	6%	5%	5%	3%	-4%	-7%	2.8%	-9%
CCOCCc1c(O)nc(SCC)[nH]c1=O	6%	nt	4%[46.1 µM]	?	-14%	-4%	nt	0%
C/C(=N/NC(=O)CNC(=O)C1COc2ccccc2O1)c1ccc([N+](=O)[O-])cc1 (configuration not stated)	-5%[46.1 µM]	nt	?	5%	-2%	-16%	nt	-3%
CCOc1ccc(CNC(=O)C2CCN(c3nn4c(=O)cc(C)nc4s3)CC2)cc1	15%&19%[46.1 µM]	1%	-1%&17%[46.1 µM]	12%	1%	-3%&-4%	-3.6%	0%
CCc1cccc2c(C(=O)COC(=O)[C@@H]3CC(O)CN3S(=O)(=O)c3ccccc3[N+](=O)[O-])c[nH]c12 (some centres not stated)	-4%[46.1 µM]	nt	-1%[46.1 µM]	nt	-4%	1%	nt	6%
CN(C)S(=O)(=O)c1ccc2c(c1)N(CC(=O)NCc1cccc(Br)c1)C(=O)CS2	11%[46.1 µM]	-27%	nt	nt	nt	-9%	0.0%	nt
CC(C)C(CCNC(=O)CC(Cc1ccccc1)c1ccco1)c1ccco1 (configuration not stated)	-6%	20%	?	-4%	-5%	-14%	-16%	-8%
C=CCOC(=O)C1=C[C@@H](c2csc3ccccc23)C[C@@H](OCc2ccc(CO)cc2)O1	nt	nt	nt	3%	-13%	-21%	nt	-3%
O=C(NC1(C(F)(F)F)N=C2SCCN2C1=O)c1ccccc1 (configuration not stated)	-4%	-8%	2%	12%	-1%[3.69 µM]	8%	3.7%	10%
COc1ccc(/C=N/NC(=O)Cc2csc(Nc3cccc(C(F)(F)F)c3)n2)cc1C	?	-19%	?	?	1%	-14%	-2.2%	-10%
Cc1cccc(C)c1OCC(O)CN(Cc1ccccc1O)C1CCCCC1 (configuration not stated)	-2%[46.1 µM]	nt	?	nt	4%	-7%	nt	-3%
Cc1ccc2nc3c(c(Nc4ccc(C)c(C)c4)c2c1)CCC3	?	?	nt	nt	nt	-12%	-4.7%	nt
CCOc1cccc(C2C(C(=O)c3ccc(C)o3)=C(O)C(=O)N2Cc2ccncc2)c1 (configuration not stated)	26%	-8%	-2%	-13%	4%	23%	-1.2%	0%
CCc1ccc(NC(=O)CSc2nc(=O)n(CCCN(C)C)c3c2CCC3)cc1	-18%[46.1 µM]	nt	?	nt	3%	-4%	nt	-4%
COCC(C)NC(=O)C(C)N1c2cccc3cccc(c23)S1(=O)=O (configuration not stated)	11%	nt	3%	11%	-1%	2%	nt	7%
CCc1ccc(CNC(=O)C2CCC(=O)N2C2CCCCC2)cc1 (configuration not stated)	-2%	6%	19%	10%	6%	6%	1.6%	-8%
CN1CCCN(S(=O)(=O)c2ccc3c(c2)OCCO3)CC1	12%	-14%	6%&6%	3%	-5%	0%	4.4%	0%
COc1ccccc1Oc1coc2cc(OC(=O)N3CCOCC3)ccc2c1=O	7%	3%	3%	-5%	10%	16%	6.3%	6%
CCCCCC1C(=O)C[C@@H]2CCN3C(=O)CCC[C@H]1[C@H]23 (some centres not stated)	nt	-3%	nt	nt	5%	-7%	-0.6%	13%
COc1ccc(S(=O)(=O)N2CCCOC2CNC(=O)C(=O)NCc2cccnc2)cc1 (configuration not stated)	12%	nt	4%	3%	1%	-24%	nt	9%
CCOC(=O)c1cc2occc2n1CC(=O)N1CCOCC1	18%	-4%	10%	-4%	-6%	21%	-1.5%	0%
CCN(CC)C(=O)COc1ccc(CC(=O)O)cc1OC	0%	-4%	-21%[46.1 µM]	8%	7%	2%	0.7%	7%

Next results:
SMILES	LASV entry inh	Cruzain noTriton	MARV entry inh	NS1 function inh	RE007 growth inh	StopGo reporter	Cruzain Triton	SARS PLpro yeast
Cc1ccc(/C(N)=N/OC(=O)CSc2ccccc2)cc1	-14%	nt	-20%[46.1 µM]	-5%	-14%	0%	nt	-2%
CC1(C)CC(=O)C2=C(C1)N=C1c3ccccc3C(=O)C1C2c1ccc(Cl)cc1 (configuration not stated)	?	-3%	?	9%	-19%	?	-5.1%	-8%
COc1cc(C(=O)Nc2cccc(S(=O)(=O)N3CCCC3)c2)cc(OC)c1C	nt	nt	nt	18%	24%	?	nt	1%
O=C(Nc1cccc(S(=O)(=O)N2CCCCC2)c1)c1ccccn1	5%	nt	-3%[46.1 µM]	nt	1%	10%	nt	-4%
Cc1cc(C)cc(OCc2nc3ncc(Br)cc3[nH]2)c1	?	nt	?	nt	8%	-21%	nt	nt
COc1ccc(C2=NS(=O)(=O)N(C)C(C(=O)Nc3ccc(OC(F)(F)F)cc3)=C2)cc1	0%[46.1 µM]	10µM*	3%[46.1 µM]	nt	nt	?	-3.9%	nt
NC(=O)COC(=O)C1c2ccccc2Oc2ccccc21	7%[46.1 µM]	nt	2%[46.1 µM]	6%	-6%	-11%	nt	-3%
Cc1cccc(NC(=O)C2CCCN(c3nnc(-n4c(C)ccc4C)s3)C2)c1C (configuration not stated)	9%[46.1 µM]	0%	7%[46.1 µM]	nt	nt	-26%	-5.9%	nt
CCN(CC)C(=O)Oc1cc(=O)n2c3c(cccc13)CCC2	4%	10%	4%	-31%	2%	7%	-2.0%	27%
CN1CCN(c2ncnc3sc(-c4ccccc4)cc23)CC1	-14%	nt	?	-1%	-1%	-11%	nt	0%
